# Compound activity from PubChem.
# BasE inh – BasE siderophore enzyme inhibitors, primary screen, biochemical, Acinetobacter baumannii ATCC 17978, fluorescence polarization. purified BasE, fluorescence polarization binding displacement. inhibition, % (no concentration beside the values). 0.1% of 84,000 active;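 active means both replicates above 25% with normal brightness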;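 further: 0% = negative plate control signal and 100% = positive plate control signal; stock transfer was 100 nL into about 30 µL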
# LANA-nucl inh – inhibitors of KSHV LANA-nucleosome binding, primary screen, biochemical, fluorescence polarization, FITC-LANA1-23, chicken nucleosomes. z-score (test concentration not listed). FITC-LANA1-23 / chicken nucleosome fluorescence polarization; stronger effect = lower value. 0.3% of 51,000 active;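 active means both repeat wells score below -2 in polarization z-score versus plate sample wells, excluding overly bright wells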;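 further: 100 nL library stock added to about 30 µL; numbers are from one replicate; some results filed as inactive read as strong as hits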
#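 test system = FITC-LANA peptide and chicken nucleosomes | amount = 240 nM purified chicken nucleosomes (480 nM peptide binding sites), final | reagent = 50 nM FITC-LANA1-23 probe | medium = TEN-BT buffer, pH 7.5 | doses = single compound addition by pin transfer, 100 nL per well | timing = 10–45 min, room temperature | detection = fluorescence polarization | repeats = duplicate plates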
# Starred values were filed as active, the others as inactive; / = no result given; & = joins results of further samples. Only part of the results is shown; count on the stated rates, not on these rows.
# The opening 2 records, ahead of the listing:
no.	Compound	BasE inh	LANA-nucl inh
1	COC(=O)/C(C(C)=N)=C(\O)CSc1ccc(Cl)cc1	0.4	/
2	COC(=O)c1sccc1S(=O)(=O)NC1CCS(=O)(=O)C1 (stereo not given)	-1.6	/

# The whole of this part, from the start:
no.	Compound	BasE inh	LANA-nucl inh
1	COC(=O)/C(C(C)=N)=C(\O)CSc1ccc(Cl)cc1	0.4	/
2	COC(=O)c1sccc1S(=O)(=O)NC1CCS(=O)(=O)C1 (stereo not given)	-1.6	/
3	Cc1cc(CNC(C)c2cc3ccccc3o2)c(C)n1-c1cccc(S(=O)(=O)N2CCOCC2)c1 (stereo not given)	-1.0	/
4	O=C1c2ccccc2C(=O)N1n1c(=O)[nH]c2ccccc2c1=O	1.6	-0.48
5	Nc1cc(=O)[nH]c(=S)n1-c1cccc(C(F)(F)F)c1	1.3	0.11
6	NC(=O)COC(=O)C12CC3CC(CC(O)(C3)C1)C2	1.6	/
7	Cc1ccccc1NC(=O)N(Cc1cccs1)C(=O)CC#N	-8.0	/
8	Cc1ccc(C(O)C(C)C)cc1 (stereo not given)	0.1	0.03
9	CC(=O)Nc1ccc(NC(=O)CSc2nnc3ccccn23)cc1	-0.4	/
10	COc1ccccc1Nc1n[nH]c(=S)n1C(=O)c1cccs1	5.8	-0.092
11	C=CCNC(=O)c1ccccc1Sc1ccccc1C#N	/	-0.86
12	O=C(O)/C(=C(/O)c1ccccc1)c1nc2ccccc2[nH]1	0.7	/
13	COc1ccc(C(=O)N2CC(C)CC(C)C2)cc1 (stereo not given)	0.3	-0.18
14	CC(=O)Oc1ccc2c(=O)c(Oc3ccc(Cl)cc3)c(C)oc2c1	2.0	/
15	COc1ccc(C)cc1NC(=O)c1ccc(S(C)(=O)=O)cc1	-0.7	/
16	O=c1cc(CSc2n[nH]c(=O)n2-c2cccnc2)c2ccc(O)cc2o1	1.8	-0.66
17	Cc1nnc2ccc(Cl)nn12	-0.4	1.8
18	O=c1[nH]ccn(Cc2ccc(Cl)cc2)c1=O	-0.8	1
19	Cc1nnc(NC(=O)C2CCN(S(=O)(=O)/C=C/c3ccccc3)CC2)o1	0.3	/
20	CC(C)CCNC(=O)c1ccc(S(=O)(=O)C(F)F)cc1	3.4	/
21	COc1cc(OC)nc(NC(=S)Nc2ccc(F)cc2)n1	-1.5	-0.54
22	Cc1ccsc1C(=O)N1CCCSC1=Nc1ccccc1	-2.1	/
23	COC(=O)C1C(c2ccccc2)C(C(=O)N2CCN(C)CC2)C1c1ccccc1 (stereo not given)	1.2	0.069
24	COC(=O)C1=C(C)Nc2ncnn2C1c1ccncc1 (stereo not given)	-1.8	0.22
25	COc1cc2c(cc1OC)C(COc1ccccc1OC)N(C(=O)c1ccc(Br)o1)CC2 (stereo not given)	-0.2	0.55

# The closing 3 compounds of the section before come first, to join the parts.
no.	Compound	BasE inh	LANA-nucl inh
23	COC(=O)C1C(c2ccccc2)C(C(=O)N2CCN(C)CC2)C1c1ccccc1 (stereo not given)	1.2	0.069
24	COC(=O)C1=C(C)Nc2ncnn2C1c1ccncc1 (stereo not given)	-1.8	0.22
25	COc1cc2c(cc1OC)C(COc1ccccc1OC)N(C(=O)c1ccc(Br)o1)CC2 (stereo not given)	-0.2	0.55
26	Cc1ccc(Nc2nnc(SCC(=O)NC(C)C)s2)cc1	0.9	/
27	CCOC(=O)CS(=O)(=O)Cc1nc(-c2ccc(OC)c(OC)c2)no1	-1.4	-0.53
28	CC(=O)Nc1ccc(S(=O)(=O)N(Cc2ccco2)S(=O)(=O)c2ccccc2F)cc1	11	/
29	O=C(NC1CCCc2ccccc21)C1=Cc2cc(Cl)ccc2OC1 (stereo not given)	0.2	/
30	Cc1cc(N2CC(C)OC(C)C2)nc2ccccc12 (stereo not given)	2.3	/
31	CSc1ccccc1NC(=O)COC(=O)CN1C(=O)CSc2ccccc21	-0.8	/
32	COc1cccc2c1OCC(C(=O)n1cccn1)=C2	/	-1.1
33	[O-]/[N+](=C/c1ccc(C(F)(F)F)cc1)c1ccccc1	1.2	-1.3
34	COc1cc(OC)nc(OC)n1	3.2	-0.66
35	COC(=O)CSc1nc2cc(Cl)ccc2c(=O)n1C1CCCC1	-1.1	/
36	CN(C)CC(C)(C)CNc1nc(-c2cccnc2)nc2ccccc12	-1.8	/
37	COC(=O)c1cc(-c2ccc(C)cc2)no1	1.2	0.41
38	Cc1nc2ccc(NC(=O)CSc3nc4ccccc4[nH]3)cc2[nH]1	-0.1	-0.57
39	O=C(NCc1n[nH]c(=O)c2ccccc12)Nc1ccccc1	1.6	-0.78
40	Cc1cc(-c2csc(-c3cccs3)n2)c(C)n1C	-1.2	/
41	c1coc(C2Nc3ccccc3C3OCCC23)c1 (stereo not given)	-1.2	0.08
42	O=C(NC1CCS(=O)(=O)C1)Sc1ccccc1 (stereo not given)	0.4	-1.2
43	O=C(Cn1[nH]c(=O)c2ccccc2c1=O)N1CCCCCC1	0.1	/
44	CCC1(C)NC(=O)N(/N=C/c2c(C)nn(Cc3c(Cl)cccc3Cl)c2SCC(=O)O)C1=O (stereo not given)	3.0	/
45	COc1ccc(NC(=O)c2cc(=O)c3ccc(C)cc3o2)cc1	-1.3	-0.98
46	O=C(O)CCN1C(=O)SC(CC(=O)Nc2nccs2)C1=O (stereo not given)	1.3	/
47	Cc1ccc2nc(SCc3c(C(=O)O)nnn3-c3nonc3N)[nH]c2c1	-1.9	0.2
48	CC(C)Oc1ccc(C2CC(=O)N(Nc3ccccc3)C2=O)cc1 (stereo not given)	-2.2	-0.71
49	Cn1ccnc1C(O)(CC(=O)O)C(F)(F)F (stereo not given)	0.4	/
50	Cn1cnnc1SCc1ccc(-c2csnn2)cc1	0.5	/

# Profiles, looked up by structure.
# CC(=O)Nc1ccc(S(=O)(=O)N(Cc2ccco2)S(=O)(=O)c2ccccc2F)cc1 across the screens: BasE inh: 11; LANA-nucl inh: /
# Cc1nc2ccc(NC(=O)CSc3nc4ccccc4[nH]3)cc2[nH]1 across the screens: BasE inh: -0.1; LANA-nucl inh: -0.57
# CCC1(C)NC(=O)N(/N=C/c2c(C)nn(Cc3c(Cl)cccc3Cl)c2SCC(=O)O)C1=O (stereo not given) across the screens: BasE inh: 3.0; LANA-nucl inh: /

# Next records follow:
no.	Compound	BasE inh	LANA-nucl inh
51	CSc1ncccc1C(=O)OC1CCCCC1=O (stereo not given)	0.5	/
52	CC(C)CNC(=O)CC1Sc2ccc(C(F)(F)F)cc2NC1=O (stereo not given)	-0.1	-1.2
53	O=C(O)C1C2CCC(C2)C1C(=O)NCc1ccc2c(c1)OCO2 (stereo not given)	-0.1	0.58
54	COC(=O)/C=C\c1cc(Br)ccc1C#N	0.2	-2
55	O=C(OCC(=O)c1c[nH]c2ccccc12)c1ccc2c(c1)OCCO2	-0.5	/
56	O=C(COc1ncnc2c1cnn2-c1ccccc1)c1ccc(Cl)s1	-0.7	/
57	OCc1nc2ccccc2n1CN1CCOCC1	2.8	/
58	O=C(CSc1nnc(C2COc3ccccc3O2)o1)Nc1ccc(F)cc1Cl (stereo not given)	0.9	/
59	Cn1nc(C(F)(F)F)cc1-c1ccc(S(N)(=O)=O)s1	-0.9	-0.036
60	Cc1cc2c(cc(C(=O)N3CCC(C(=O)NC4CCCC4)CC3)n2Cc2c(F)cccc2Cl)o1	-1.8	-0.24
61	O/N=C/c1c(-c2ccccc2)nc2sccn12	/	-0.51
62	O=C(CN1CCCC1)Nc1nc(-c2ccc3c(c2)CCN3C(=O)C2CC2)cs1	-4.3	0.89
63	CCCc1cnc2c(c1SCC(=O)NCc1ccc(F)cc1)c(=O)n(C)c(=O)n2C	0.2	-1.5
64	N=c1c2c(-c3ccccc3)c(-c3ccccc3)n(Cc3ccco3)c2ncn1CCN1CCOCC1	-2.2	1.1
65	CCn1c2c(c3cc(C4CCCCC4)ccc31)CCCC2=O	2.9	/
66	O=C(c1cccs1)N1CCN(Cc2c(F)cccc2Cl)CC1	/	-0.63
67	O=C(O)c1cnn(-c2nc(-c3ccccc3)cs2)c1C(F)(F)F	/	0.24
68	CCC(C)Nc1cc(C)c(C#N)c2nc3ccccc3n12 (stereo not given)	-2.5	/
69	COc1ccc(C2=CC(C3CC3)=C(C#N)C(=C(C#N)C#N)N2)cc1	20	-1.3
70	COc1cccc(CC(=O)Nc2cccc(OC)c2)c1	-1.1	/
71	O=C(NCc1ccccc1)c1nc[nH]c1C(=O)NCc1ccccc1	0.3	0.93
72	CC1(C)CC(=O)C/C(=N\NC(=O)CCC(=O)Nc2ccccc2)C1	0.1	0.69
73	CCCC(=O)c1cc(-c2nc3ccccc3n2C)n(C)c1	-1.7	1.2
74	Cc1ccc(NC(=O)CSC(C)C(=O)O)cc1 (stereo not given)	-0.1	/
75	O=C1C=C(Nc2ccc3c(c2)OCO3)CC2(CCCCC2)C1	2.1	/
76	Cc1[nH]nc2c1C1(C(=O)N(C)c3ccccc31)C(C#N)=C(N)O2 (stereo not given)	1.5	-0.56
77	O=C(CSc1ncccn1)N/N=C/c1ccc2c(c1)OCO2	-1.9	0.29
78	Cc1c(-c2nnnn2-c2ccc(F)cc2)cnc2cc3c(cc12)OCO3	-0.7	/
79	CCOC(=O)c1c(C)[nH]c(C(=O)CN2C(=O)CCC2=O)c1C	-0.1	/
80	O=C(c1c(F)cccc1F)N1CCCCC1Cn1cccc1 (stereo not given)	/	0.32
81	CN(Cc1cccs1)C(=O)C1CC(=O)N(c2ccc3c(c2)OCCO3)C1 (stereo not given)	1.2	/
82	COc1ccccc1/C=C/C=NN1CCN(Cc2ccccc2)CC1	4.6	-0.6
83	CCOC(=O)c1c(N)sc2c1CCCS2	1.3	/
84	O=C(N[C@@H](CO)[C@H](O)c1ccc([N+](=O)[O-])cc1)C(Cl)Cl	-0.4	0.044&-0.73
85	NNc1nc2ccc(Cl)cc2s1	1.6	0.72
86	O=C(NCC1CC1)Nc1ccc(Cl)cc1	0.5	1.5
87	CCCOc1ccc(CN(CCC)C(=S)NC)cc1OC	-1.0	/
88	Fc1ccc(-c2nc3ncccc3o2)cc1	0.9	-1.2
89	Cc1noc(C)c1COc1cccc(C(=O)N2CCC(C(N)=O)CC2)c1	1.9	/
90	COC(=O)c1cc2nc3c(c(C(F)(F)F)n2n1)CCc1ccccc1-3	-0.8	0.72
91	O=C(O)C1Cc2ccccc2O1 (stereo not given)	-0.8	/
92	O=C(Nc1ccc(Cl)cc1)N1CCC(c2nc(-c3ccc(F)cc3)no2)CC1	4.1	-0.6
93	O=C(COc1ccccc1)c1c[nH]c2ccccc12	-33	2.2
94	O=C(NCCN1CCOCC1)c1n[nH]c(=O)c2ccccc12	2.8	/
95	CCOc1cc(C=C2C(=O)NC(=S)NC2=O)cc(Br)c1OCc1ccc(Cl)cc1	0.7	/
96	CCNCC(=O)Nc1ccc2c(c1)OCCO2	0.2	/
97	C=CCN1C(=O)S/C(=C\c2cn(CC(=O)N3CCOCC3)c3ccccc23)C1=O	2.8	/
98	Nc1c(-c2ccc(F)cc2)cnc2ncnn12	/	0.33
99	Cc1onc(-c2ccccc2)c1C(=O)c1ccc(F)cc1	0.7	-0.24
100	O=c1c2ccccc2nnn1CSc1ncnc2sccc12	1.1	/

# (further entries)
no.	Compound	BasE inh	LANA-nucl inh
101	CCOC(=O)NC1C=CS(=O)(=O)C1 (stereo not given)	-0.5	/
102	Cc1csc2nc(O)c(C(=O)NCCCN3CCOCC3)c(=O)n12	1.7	-0.4
103	CCOC(=O)c1c(Nc2ccccc2N)cc(C)nc1C	0.1	-0.66
104	COc1cc(-c2nn(CN3CC(C)OC(C)C3)c(=S)o2)cc(OC)c1OC (stereo not given)	0.4	/
105	Cc1cc(C)nc(Oc2ccc(Br)cc2Br)n1	0.2	-0.43
106	C=CCn1c(SCC(=O)Nc2sc(C(=O)OC)c(C)c2C(=O)OC)nc2ccccc21	0.0	/
107	O=C(NCc1ccco1)c1ccccc1	0.0	0.99
108	CCC(c1nnc(SCC(=O)c2ccccc2)n1Cc1ccccc1)N(C)C (stereo not given)	-3.5	/
109	CCC(C(=O)NC1CCN(C)CC1)c1ccccc1 (stereo not given)	5.7	0.47
110	C/C(=N/NS(C)(=O)=O)c1ccc2ccccc2c1	0.5	-1.6
111	Cc1ccc(CCNC(=O)c2cc(=O)[nH]c3ccc(S(=O)(=O)N4CCCC4)cc23)cc1	-0.9	-0.65
112	Cc1nc2c3cc(F)ccc3n(C)c2s1	1.0	-0.15
113	O=C(Cc1n[nH]c(=O)c2ccccc12)NCCc1ccccn1	2.2	/
114	O=C(NC1CCCCC1)C1c2ccccc2C(=O)N1Cc1ccc2c(c1)OCO2 (stereo not given)	0.9	-0.56
115	Cc1ccc2oc(=O)c(C(=O)O)cc2c1	-0.2	0.66
116	C=CCN(CC(=O)N1CCN(c2ccccc2)CC1)S(=O)(=O)c1ccccc1C(F)(F)F	-0.1	/
117	O=C(c1ccc(Nc2nc3ccccc3n3cnnc23)cc1)N1CCN(C2CCCCC2)CC1	1.2	0.041
118	O=C(CSc1nnc2ccccn12)N1CCCC1	0.6	/
119	COc1cc(Cl)c(NC(=O)CCn2ccc(C)n2)c(OC)c1	2.9	-1.5
120	COc1ccc(N2CC(C(=O)NC3=NCCS3)CC2=O)cc1 (stereo not given)	1.1	-1.4
121	O=C(COC(=O)C12CCC(=O)N1c1ccccc1C(=O)N2C1CC1)Nc1ncc(Cl)cc1Cl (stereo not given)	7.8	/
122	O=C(OCCOc1ccccc1)c1ccc(-n2cnnn2)cc1	1.4	/
123	Cc1ccc(N2C(=O)SC(N(C)c3ccccc3)C2=O)cc1 (stereo not given)	1.5	0.19
